# KB-3-1 cytotox: KB-3-1 parental cell cytotoxicity | KB-3-1 viability, CellTiter-Glo ATP luminescence, 72 h | Potency, µM (titrated, usually from 46.1 µM), for the others: at the highest dose activity change, negative = cytotoxic, most hits filed as cytotoxic | hit rate 1.4% among 400,000 | AID 1347075; also: potency is read from the fitted curve at half-maximal effect; % is scaled to controls: 0 for no effect and ±100 for the full control effect; nearly all actives have a fitted effect of over 60% in size
#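 Here the drug-naive KB-3-1 line serves as comparator for MDR sub-line selectivity; cells received compound titrations, 72 h at 37 °C, then CellTiter-Glo readout.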
# HT1080NT lethal: kills 2HG-producing HT-1080-NT fibrosarcoma cells; hit rate 1.6% among 360,000; HT-1080-NT fibrosarcoma viability, CellTiter-Glo ATP luminescence, 48 h; Potency, µM (top dose mostly 46.1 µM), inactives show at the highest dose activity, negative = less viability, hits mostly cytotoxic;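 also: NT is the 2HG producing partner of a matched IDH1 knockdown line; potency is read from the fitted curve at half-maximal effect; 0% = DMSO-treated cells and -100% = media-only wells without cells; nearly all actives have a fitted effect of over 55% in size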
#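 HT-1080-NT fibrosarcoma cells (2HG-overproducing), 750 cells/well in RPMI with 5% FBS, dosed after 2 h and incubated 48 h at 37C. CellTiter-Glo luminescence normalized to DMSO and no-cell wells; concentration-response curves fitted and classed.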
# IL-1B inflam inh: blocks inflammasome-driven IL-1 beta release; THP-1 LPS/ATP IL-1B secretion, AlphaLISA, 16 h; stronger effect = lower value; activity change, % at 57.5 µM; hit rate 4.7% among 360,000; AID 743279; in the data active = activity change below about -50%; inconclusive = mostly about -30% to -49%; also: % is scaled to controls: 0 for no effect and ±100 for the full control effect
#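 Secreted IL-1B measured by AlphaLISA bead assay after 16 h compound exposure of THP-1 cells; compounds (final up to 57.5 uM) added 1 h before LPS (250 ng/mL) and ATP (1.25 mM) stimulation; lower signal means less secretion.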
# ATXN2 expr inh: inhibitors of ATXN2 expression | HEK-293 ATXN2-luciferase reporter, luminescence, 24 h | Potency, µM (series often up to 57 µM), inactives show top-dose activity change, negative = inhibition, most hits filed as inhibitors | hit rate 0.72% among 360,000 | AID 1745845; also: potency is read from the fitted curve at half-maximal effect; % is scaled to controls: 0 for no effect and ±100 for the full control effect; nearly all actives have a fitted effect of over 55% in size
#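 ATXN2-luciferase reporter cells (luciferase flanked by upstream and downstream ATXN2 gene portions) were treated 24 h at 37 °C with compounds at up to 57 uM. SteadyGlo luminescence gave expression; GF-AFC fluorescence gave viability.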
# SW480 rerep: DNA re-replication induction in SW480 cells; SW480 DNA re-replication, Hoechst DNA content imaging, 48 h; Potency, µM (series often up to 46.1 µM), without a hit: at the top dose re-replication activation, most hits filed as activators; hit rate 1.8% among 340,000; AID 624297; also: potency is read from the fitted curve at half-maximal effect; % of control where 0% means no effect; nearly all actives have a fitted effect of over 55% in size
#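 SW480 cells exposed to compounds for 48 hr at 37 C, 5% CO2, then Hoechst-stained 40 min. Nuclear DNA content imaged by fluorescence scanning (405 nm excitation, 500-530 nm emission); re-replication scored as increased high-intensity nuclei.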
# KB-V1 MDR tox: kills drug-selected multidrug resistant KB-V1 cells. hit rate 3.4% among 400,000. Potency, µM (doses to about 46.1 µM), without a hit: at the top dose activity change, negative = cytotoxicity, actives largely listed as cytotoxic. KB-V1 MDR cells viability, CellTiter-Glo, 72 h; also: potency is read from the fitted curve at half-maximal effect; % is scaled to controls: 0 for no effect and ±100 for the full control effect; nearly all actives have a fitted effect of over 60% in size
#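 KB-V1 cells (P-gp-expressing MDR subline of KB-3-1) in phenol-red-free DMEM with 10% FBS were exposed to library compounds over a concentration series for 72 h at 37 degrees C. Viability read by CellTiter-Glo luminescence; concentration-effect curves fitted after normalization.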
# MCF10A rereplic: induces DNA re-replication in MCF 10a normal breast cells | MCF 10A DNA re-replication, Hoechst nuclear intensity, 48 h | Potency, µM (highest dose often 46.1 µM), for the others: at the top dose activity, positive = re-replication, usual class: activators | hit rate 2.9% among 350,000 | AID 624296; also: potency is read from the fitted curve at half-maximal effect; % of control where 0% means no effect; nearly all actives have a fitted effect of over 50% in size
# HT1080 IDH1KD tx: kills HT-1080 cells with IDH1 knockdown; HT-1080 IDH1 knockdown viability, ATP luminescence, 48 h; Potency, µM (doses to about 46.1 µM), for the others: top-dose activity, negative = toxicity, hits mostly cytotoxic; hit rate 2% among 360,000;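 also: potency is read from the fitted curve at half-maximal effect; 0% = DMSO wells and -100% = cell-free medium wells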
#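 Luminescent ATP read-out (CellTiter-Glo, 10 min at room temperature) after 48 h compound exposure at 37 °C gave viability of IDH1-knockdown HT-1080 cells. Activity was normalised to DMSO and cell-free wells, then fitted as concentration-response curves.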
# * hit, by the source's call; ? = inconclusive; . = no result given; [ ] = another dose, or the depositor's remark. Unless noted, calls follow the shape of the dose curve; as a rule, active = well fitted curve in the direction sought with a large enough effect; inconclusive = small, poorly fitted or top-dose-only effect, or another doubt; inactive = no such curve, though single readings can be large; an effect the other way counts as inactive or inconclusive.
item	smiles	KB-V1 MDR tox	HT1080NT lethal	IL-1B inflam inh	SW480 rerep	KB-3-1 cytotox	ATXN2 expr inh	MCF10A rereplic	HT1080 IDH1KD tx
1	CCC(=O)N1CCC1(C)C(=O)Nc1nccs1 (stereo not drawn)	-10%	21%	43	.	0%	-4%	.	13%
2	Cc1cc(C)c(S(=O)(=O)Nc2cccc(/C=C/C(=O)O)c2)c(C)c1	20%	3%	29	-3%	-5%	-1%	11%	5%
3	O=C(Nc1nnc(CCN2CCCCC2)s1)c1ccc(Cl)cc1Cl	2%	3%	-9	-27%	-2%	.	-4%	-2%
4	O=C(CCN1C(=O)S/C(=C\c2ccc(Cl)cc2)C1=O)Nc1ccc(C(=O)O)cc1	-2%	-5%	-20	2%	23%	6%	16%	-18%
5	CCc1ccc(Nc2cnn(-c3nc4ccccc4s3)c(=O)c2Cl)cc1	13µM*	-8%	-26	-4%	8%	10%	8%	1%
6	Cc1c(C(=O)OCC(=O)N(C)Cc2ccc(Cl)cc2)oc2ccccc12	0%	-5%	?	?	-8%	-19%	21%	0%
7	O=C(O)CC/C(=C\c1ccc(Cl)c([N+](=O)[O-])c1)c1nc2ccccc2s1	-20%	-4%	17	-12%	-24%	-24%	2%	-1%
8	CC(=O)c1ccc(N2CCN(C(=O)CCc3ccccc3)CC2)cc1	7%	-1%	0	5%	-13%	5%	?	0%
9	CCCCOc1ccccc1-c1cc(C(=O)O)[nH]n1	-5%	-4%	16	1%	7%	0%	2%	-7%
10	COc1ccc(CCNC(=O)c2nnc(Cc3c(F)cccc3Cl)o2)cc1OC	-29%	-2%	-10	-1%	0%	-8%	-1%	-1%
11	COc1ccccc1C(=O)N1CCCC(C)(C(=O)NS(=O)(=O)C2CC2)C1 (stereo not drawn)	2%	9%	2	.	0%	0%	.	22%
12	CC(C)[C@@H](C(=O)OCC(=O)c1ccc2c(c1)NC(=O)CO2)N1C(=O)c2ccccc2C1=O	12%	1%	26	-4%	1%	-4%	14%	3%
13	COc1ccc(NC(=O)c2c(Cl)cnn2C)c(C)c1	3%	12%	-5	-15%	-23%	2%	-7%	8%
14	CN(C)CCOc1ccc(Cl)cc1C(C)(C)C	8%	-6%	-14	-6%	-1%	-27%	-8%	-3%
15	Cc1ccc2nc(NCc3ccccc3)c(C=NCc3cccnc3)c(=O)n2c1	27%	19%	40	-7%	7%	15%	1%	15%
16	COc1cc(CO)c(Br)cc1OCC(N)=O	0%	20%	-5	20%	1%	-22%	?	17%
17	CC(=O)c1ccc(N2CCN(C(=O)Cc3cccs3)CC2)cc1	?	16%	9	-5%	-3%	29%	-7%	11%
18	C/C(O)=c1/c(=O)nc2cccc3c2=c1c1ccccc1c3=O	-8%	-16%	-7	-5%[9.22 µM]	-13%	-13%	13%	-15%
19	Cc1cc(C)c2c(CC(=O)NC3CCS(=O)(=O)C3)coc2c1 (stereo not drawn)	-7%	-12%	-13	-6%	0%	.	12%	0%
20	C=CCn1c(SCC(=O)NCc2ccco2)nnc1C1CCCCC1	-2%	4%	4	-2%	14%	9%	28%	5%
21	CCc1cc2c(N[C@@H](Cc3c[nH]c4ccccc34)C(=O)O)ncnc2s1	-4%	11%	17	-4%	0%	6%	-6%	11%
22	CC1(C(=O)NS(=O)(=O)C2CC2)CCCN(C(=O)c2ccccc2)C1 (stereo not drawn)	8%	4%	3	.	0%	1%	.	7%
23	O=C(Nc1ccc(NC(=O)c2ccccc2F)cc1)c1cccs1	13%	3%	-10	-12%	0%	.	2%	1%
24	CCOc1cc(/C=C2/NC(=O)N(CC(=O)Nc3cccc(C)c3)C2=O)ccc1OCC(N)=O	9%	-21%	-6	6%	-6%	-30%	16%	-18%
25	CCC(=O)NS(=O)(=O)c1cccnc1Nc1ccccc1Cl	11%	19%	10	-1%	9%	-2%	14%	16%
26	CC1=CCC(C(=O)O)C(C(=O)Nc2nc3ccc(S(C)(=O)=O)cc3s2)C1 (stereo not drawn)	4%	1%	2	1%	12%	-11%	-185%[0.0737 µM]	-5%
27	Fc1cccc(Cl)c1CSc1ncn[nH]1	-1%	-4%	?	-1%	-4%	4%	-56%[0.0737 µM]	-6%
28	O=C(O)c1cc(-c2ccccc2Cl)n[nH]1	17%	12%	25	-2%[9.22 µM]	14%	-7%	-17%	14%
29	CCc1ccc(NC(=O)CSc2ccc(-c3ccco3)nn2)cc1	?	-25%	28	-1%	1%	10%	?	-14%
30	CCn1c(SCC(=O)NC(=O)NCc2ccco2)nnc1-c1cccs1	0%	9%	-4	-3%[9.22 µM]	-8%	3%	-3%	19%

# Structures from the list above that have four or more nitrogen atoms (seven):
item	smiles	KB-V1 MDR tox	HT1080NT lethal	IL-1B inflam inh	SW480 rerep	KB-3-1 cytotox	ATXN2 expr inh	MCF10A rereplic	HT1080 IDH1KD tx
3	O=C(Nc1nnc(CCN2CCCCC2)s1)c1ccc(Cl)cc1Cl	2%	3%	-9	-27%	-2%	.	-4%	-2%
5	CCc1ccc(Nc2cnn(-c3nc4ccccc4s3)c(=O)c2Cl)cc1	13µM*	-8%	-26	-4%	8%	10%	8%	1%
15	Cc1ccc2nc(NCc3ccccc3)c(C=NCc3cccnc3)c(=O)n2c1	27%	19%	40	-7%	7%	15%	1%	15%
20	C=CCn1c(SCC(=O)NCc2ccco2)nnc1C1CCCCC1	-2%	4%	4	-2%	14%	9%	28%	5%
21	CCc1cc2c(N[C@@H](Cc3c[nH]c4ccccc34)C(=O)O)ncnc2s1	-4%	11%	17	-4%	0%	6%	-6%	11%
24	CCOc1cc(/C=C2/NC(=O)N(CC(=O)Nc3cccc(C)c3)C2=O)ccc1OCC(N)=O	9%	-21%	-6	6%	-6%	-30%	16%	-18%
30	CCn1c(SCC(=O)NC(=O)NCc2ccco2)nnc1-c1cccs1	0%	9%	-4	-3%[9.22 µM]	-8%	3%	-3%	19%

# Screen by screen, as entered above:
# Compounds 21–30 in KB-3-1 cytotox read 0%, 0%, 0%, -6%, 9%, 12%, -4%, 14%, 1%, -8%

# Source: PubChem BioAssay

# The list is partial. The share of hits here may be higher or lower than overall.
